TRPV1 potentiator = enhances activation of the human vanilloid receptor TRPV1; Q8NER1; TRPV1-expressing cells, Fluo-8 calcium influx, capsaicin EC20 potentiation; host cell line not named in the record; control for the full effect not named in the record; potentiation, % at 8.33 µM; 0.02% of 320,000 active; active means potentiation above 80%; inconclusive means 30% to 80%; inactive means below 30%; also: 0% is about no effect
Target sequence (Q8NER1 whole entry, looked up): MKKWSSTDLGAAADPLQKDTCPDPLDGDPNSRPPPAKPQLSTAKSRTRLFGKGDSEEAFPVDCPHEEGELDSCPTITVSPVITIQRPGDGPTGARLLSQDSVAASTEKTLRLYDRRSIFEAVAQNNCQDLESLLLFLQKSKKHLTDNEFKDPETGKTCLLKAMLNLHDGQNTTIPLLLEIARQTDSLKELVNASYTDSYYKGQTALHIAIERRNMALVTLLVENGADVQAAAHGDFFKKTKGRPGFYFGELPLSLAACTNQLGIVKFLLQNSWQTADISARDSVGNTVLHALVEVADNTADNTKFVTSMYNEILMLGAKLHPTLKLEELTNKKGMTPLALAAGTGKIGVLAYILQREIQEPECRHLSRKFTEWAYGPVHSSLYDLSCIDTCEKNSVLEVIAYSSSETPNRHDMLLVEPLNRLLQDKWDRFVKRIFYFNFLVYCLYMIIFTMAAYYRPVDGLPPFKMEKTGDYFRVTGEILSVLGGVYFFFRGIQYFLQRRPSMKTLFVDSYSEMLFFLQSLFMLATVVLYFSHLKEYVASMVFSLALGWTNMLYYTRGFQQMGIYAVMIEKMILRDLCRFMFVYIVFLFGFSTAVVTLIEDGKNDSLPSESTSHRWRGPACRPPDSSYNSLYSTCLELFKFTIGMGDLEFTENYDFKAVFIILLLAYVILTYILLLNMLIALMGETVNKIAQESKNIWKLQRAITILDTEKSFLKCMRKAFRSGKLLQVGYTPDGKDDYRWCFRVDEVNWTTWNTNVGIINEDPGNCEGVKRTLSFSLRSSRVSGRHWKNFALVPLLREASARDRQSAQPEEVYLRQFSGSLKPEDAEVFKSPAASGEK
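Cells expressing TRPV1 were dye-loaded with Fluo-8 and read kinetically: 10 s baseline, 3 min after compound (agonist portion), then 2 min after EC20 capsaicin (allosteric enhancer portion). Calcium-bound dye fluorescence at 480/520 nm.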
gsp antag = gsp mutant antagonism | gsp-mutant cells, cAMP HTRF, 30 min; control for the full effect not named in the record | Potency, µM (titrated, usually from 76.9 µM), for the others: at the top dose activity change, negative = inhibition, actives largely listed as inhibitors | 0.4% of 340,000 active; active = falling curve of any shape with a large fitted effect; inconclusive = falling curve, mostly with a smaller effect; inactive = flat or rising curve; cell line not stated here;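 also: intracellular cAMP measured with PDE inhibitor Ro 20-1724 present during compound exposure; potency is read from the fitted curve at half-maximal effect; % is scaled to controls: 0 for no effect and ±100 for the full control effect; nearly all actives have a fitted effect of over 65% in size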
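Measurement of cellular cAMP by homogeneous time-resolved fluorescence following a 30 min compound exposure at 37C. The PDE inhibitor […] was present throughout; the assay buffer was DPBS with 0.05% BSA and 0.005% Tween 20.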
CtBP-E1A blk = inhibitors of CtBP/E1A interaction; AlphaScreen GST-E1A/His-CtBP binding, 1536-well; active compounds read low; control for the full effect not named in the record; activity change, % (no concentration beside the values); 0.49% of 340,000 active; AID 651724; in the data active means activity change below about -65%; inconclusive means about -30% to -65%; inactive means above about -30%; also: % is scaled to controls: 0 for no effect and ±100 for the full control effect
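Steps: dispense buffer (Tris pH 8.0, NaCl 300 mM, TCEP 1 mM, BSA, Tween 20); add 5X protein mix (GST-E1A, His-CtBP, 125 nM each); pin 23 nL compound; 2 h at 37 °C, dark; add 5X beads (50 ug/mL); 1 h; read.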
gsp ag = agonists of gsp mutant (McCune-Albright syndrome); gsp mutant cells, cAMP HTRF, 30 min; control for the full effect not named in the record; Potency, µM (doses to about 76.9 µM), for inactives: at the top dose activation (cAMP increase), usual class: activators; 0.13% of 340,000 active; AID 624287; active = well fitted activation curve with a large enough effect; inconclusive = small, poorly fitted or top-dose-only effect, or another doubt; inactive = no such curve, though single readings can be large or run the other way; cell line not stated here;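 also: phosphodiesterase inhibitor Ro 20-1724 added with compounds to block cAMP breakdown; potency is read from the fitted curve at half-maximal effect; nearly all actives have a fitted effect of over 60% in size; about a fifth of the inactives were tested at one dose only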
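Cells stably selected in G418 were plated at 2000/well, grown 16-24 hr, then given compounds in DMSO with the PDE inhibitor […] (300 uM solution added) for 30 min at 37C; cAMP was read by HTRF.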
Sfp inh = inhibitors of Bacillus subtilis Sfp phosphopantetheinyl transferase. Q9F4F7. Biochemical Sfp PPTase activity, qHTS. Potency, µM, without a hit: max response, negative = inhibition, usual class: inhibitors. 3.5% of 310,000 active; active = well fitted inhibition curve with a large enough effect; inconclusive = small, poorly fitted or top-dose-only effect, or another doubt; inactive = no such curve, though single readings can be large or run the other way;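 also: the enzyme is Sfp with the accession as filed and its product quenches rhodamine fluorescence; potency is read from the fitted curve at half-maximal effect; 0% = enzyme reaction without inhibitor and -100% = no enzyme wells; top concentration of the series not given in the record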
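Fluorescence-quenching assay with 15 nM Sfp, 5 uM rhodamine-CoA and 12.5 uM BHQ-2-labelled ybbR peptide in pH 7.6 Hepes/MgCl2 buffer. Enzyme was pre-incubated with compound for 15 min at room temperature. Rate was taken from the 30-min fluorescence change (525/598 nm).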
Menin-MLL FL inh = displaces fluorescein MLL peptide from human menin; 290,000 tested, under 10 active; Fluorescence polarization, fluorescein-MLL peptide displacement from menin; AID 1766; FP activity change, % at 61.4 µM; inconclusive = falling polarisation curve, or a change in total fluorescence; inactive = total fluorescence flat and polarisation flat or rising; no compound was filed as active; the % refers to the polarisation; negative = inhibition;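 also: % of control where 0% means no effect; inhibitors lower the polarisation; unlabelled MLL peptide was the positive control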
ClpP mod = qHTS Assay for Activators of ClpP | ATP-dependent Clp protease proteolytic subunit (Bacillus subtilis (strain 168)), P80244 | purified B. subtilis ClpP, FRET peptide cleavage, 20 min | Potency, µM (highest dose often 57.5 µM), for inactives: at the top dose activity change, negative = active | 1.9% of 340,000 active | AID 651965, 2013; active = well fitted falling curve with a large enough effect; inconclusive = small, poorly fitted or top-dose-only effect; inactive = no such curve, though single readings can be large or run the other way; also: potency is read from the fitted curve at half-maximal effect; the source files actives as falling curves though it sought activators and does not explain the sign; nearly all actives have a fitted effect of over 65% in size; many hits overshoot -100%
Target sequence (P80244 whole entry, looked up): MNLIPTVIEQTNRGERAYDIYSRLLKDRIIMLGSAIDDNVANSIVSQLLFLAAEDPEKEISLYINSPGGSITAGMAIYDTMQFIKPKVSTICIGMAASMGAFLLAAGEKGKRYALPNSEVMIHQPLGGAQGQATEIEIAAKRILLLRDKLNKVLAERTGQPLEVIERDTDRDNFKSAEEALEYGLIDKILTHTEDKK
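Purified B. subtilis ClpP, 10 microg/mL final in Tris/HCl pH8 with KCl, BSA, glycerol and Tween-20, cleaved an Abz/nitrotyrosine-quenched decapeptide. Fluorescence (ex 320, em 430) was read at 0 and 20 min at room temperature. Delta was normalized to 5.8 microM ADEP and DMSO/no-enzyme controls.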
Starred values were filed as active, the others as inactive; ? = inconclusive; · = not tested or not shown; [ ] = remark or other dose.

cpd	structure	TRPV1 potentiator	gsp antag	CtBP-E1A blk	gsp ag
1	CCN(CC)S(=O)(=O)c1cc(NC(=O)C(=O)c2c(-c3ccccc3)cc3ccccn23)ccc1C	14	-5%	-18	3%
2	COc1cccc(NC(=O)Cn2c(=O)n(CC3CCCO3)c(=O)c3ccccc32)c1 (centres undefined)	9	6%	4	-2%
3	CCOc1cc(-c2nnc(NC(=O)c3ccco3)o2)cc(OCC)c1OCC	5	-16%	-3	?
4	CN(CC(=O)Nc1cccc(F)c1)CC(=O)Nc1cccc(S(=O)(=O)N2CCCCC2)c1	1	?	-8	?
5	CC(=O)NS(=O)(=O)c1ccc(NC(=S)NC(=O)C2CCC2)cc1	3	15%	6	-15%
6	CC(C)(C)c1ccc(/C=N/NC(=O)Cc2c[nH]c3ccccc23)cc1	-5	-16%	-10	-6%
7	C=C(Cl)COc1ccc2c(C)cc(=O)oc2c1	?	11%	6	-29%
8	CCc1ccc(-c2ccc(C(=O)C(F)(F)F)[nH]2)cc1	-8	-13%	9	-10%

cpd	Sfp inh	Menin-MLL FL inh	ClpP mod
1	-8%	-2.2	0.5%
2	4%	3.2	-3.3%
3	·	·	-2.9%
4	·	·	-1.0%
5	16%	1.3	-1.0%
6	1%	-0.6	-1.9%
7	-5%	-1.7	10µM*
8	17%	4.7	0.2%

Following part
cpd	structure	TRPV1 potentiator	gsp antag	CtBP-E1A blk	gsp ag
9	CC1=C(C(=O)N(C)C)CC(CC(=O)NC2CC2)C(=O)N1Cc1ccccc1 (centres undefined)	·	·	-6	18%
10	CC(=O)N1N=C(c2cccc(NS(C)(=O)=O)c2)CC1c1cccs1 (centres undefined)	6	·	1	12%[15.4 µM]
11	COc1ccc(CCNC(=O)CCNS(=O)(=O)c2cccc(Cl)c2)cc1OC	3	1%	·	0%
12	Cc1cc(-c2ccn[nH]2)c(C)s1	5	5%	-15	5%
13	O=C(NN(c1ccccc1)c1ccccc1)c1ccc([N+](=O)[O-])o1	-12	0%	2	-8%
14	Nc1n[nH]c(N)c1N=Nc1cccc(F)c1	8	9%	11	-2%[15.4 µM]
15	CCN(c1ccccc1)S(=O)(=O)c1ccc(Cl)c(NC(=O)CN2CCCCCC2)c1	4	?	-2	-2%[15.4 µM]
16	Cc1ccc(OCCSc2nc3ccccc3n2CC(=O)O)cc1C	95*	3%	-5	-12%

cpd	Sfp inh	Menin-MLL FL inh	ClpP mod
9	·	·	-7.9%
10	15%	0.5	·
11	4%	1.2	-3.8%
12	7%	1.3	-1.6%
13	7%	2.6	·
14	2%	2.1	1.6%
15	56µM*	-1.4	·
16	-8%	-3.9	4.5%

Next part, overlapping the part above by six compounds.
cpd	structure	TRPV1 potentiator	gsp antag	CtBP-E1A blk	gsp ag
11	COc1ccc(CCNC(=O)CCNS(=O)(=O)c2cccc(Cl)c2)cc1OC	3	1%	·	0%
12	Cc1cc(-c2ccn[nH]2)c(C)s1	5	5%	-15	5%
13	O=C(NN(c1ccccc1)c1ccccc1)c1ccc([N+](=O)[O-])o1	-12	0%	2	-8%
14	Nc1n[nH]c(N)c1N=Nc1cccc(F)c1	8	9%	11	-2%[15.4 µM]
15	CCN(c1ccccc1)S(=O)(=O)c1ccc(Cl)c(NC(=O)CN2CCCCCC2)c1	4	?	-2	-2%[15.4 µM]
16	Cc1ccc(OCCSc2nc3ccccc3n2CC(=O)O)cc1C	95*	3%	-5	-12%
17	O=C(c1cccs1)N1CCN(c2ccccc2)CC1	-13	6%	3	20%
18	Cc1cc(=O)[nH]c(SCCCOc2ccccc2Cl)n1	5	?	2	-10%
19	C/C(=N\O)C(=O)NCc1ccccn1	5	3%[15.4 µM]	0	-18%
20	CCC(c1nnc(SCC(=O)Nc2c(F)cccc2F)n1Cc1ccccc1)N(C)C (centres undefined)	1	1%	-1	?
21	COC(=O)CCc1c(C)nc(N)[nH]c1=O	-18	4%	1	-9%
22	Cc1cccc(C)c1NC(=O)CN1C(=O)S/C(=C\c2cccn2-c2cccc(C(=O)O)c2)C1=O	9	?	-1	3%
23	Cc1cc(/C=C2/SC(=S)N(c3cccc(C(F)(F)F)c3)C2=O)c(C)n1-c1cccnc1	·	?	-29	-5%
24	Cc1nn(C)c(C)c1CN(C)C(=O)C1(C)CC1(Br)Br (centres undefined)	-2	1%	3	1%[15.4 µM]

cpd	Sfp inh	Menin-MLL FL inh	ClpP mod
11	4%	1.2	-3.8%
12	7%	1.3	-1.6%
13	7%	2.6	·
14	2%	2.1	1.6%
15	56µM*	-1.4	·
16	-8%	-3.9	4.5%
17	6%	0.4	-1.3%
18	13%	-0.6	0.8%
19	?	0.6	3.8%
20	8%	·	-2.0%
21	13%	4.8	-0.5%
22	-17%	8.7	28µM*
23	·	·	1.4%
24	11%	5.9	-7.0%

(continued)
cpd	structure	TRPV1 potentiator	gsp antag	CtBP-E1A blk	gsp ag
25	O=c1[nH]c(=S)c2ncn(-c3ccccc3)c2[nH]1	7	11%	-10	12%
26	O=C(CSCc1ccc(Cl)cc1)Nc1ccc(S(=O)(=O)N2CCCCCC2)cc1	6	-7%	0	-51%[inhibitor]
27	Cc1cccc(N(Cc2ccccc2)C(=O)c2ccc(C)c(S(=O)(=O)N3CCOCC3)c2)c1	2	?	-4	-18%
28	COc1cc(/C=C/CN2CCC(CO)(CC3CCCCO3)CC2)ccc1O (centres undefined)	-6	10%	-17	-12%[15.4 µM]
29	CC[n+]1c(C)n(-c2ccccc2)c2ccc(C(=O)OC)cc21	3	14%	6	5%[15.4 µM]
30	CC(=O)Nc1ccc(S(=O)(=O)N2CCN(C(=O)N3CCCCCC3)CC2)cc1	-7	-7%	1	-31%[inhibitor]
31	Cc1cc(NC(=O)COC(=O)[C@H](C)NC(=O)c2ccccc2)no1	-13	-17%	7	?
32	CCn1c(CNC(=O)COc2ccc(C(C)C)cc2)nnc1SCC(=O)Nc1ccccc1C(C)C	-3	?	0	8%

cpd	Sfp inh	Menin-MLL FL inh	ClpP mod
25	18µM*	2.4	·
26	15%	-3.5	-2.3%
27	·	·	1.7%
28	13%	-5.8	-6.5%
29	10%	2.6	·
30	18%	2.9	-2.1%
31	7%	0.5	-0.1%
32	4%	4.5	-1.3%

(listing goes on)
cpd	structure	TRPV1 potentiator	gsp antag	CtBP-E1A blk	gsp ag
33	CC(NC(=O)COC(=O)c1cc(Cl)ccc1O)C1CC2CCC1C2 (centres undefined)	0	-19%	1	-72%[inhibitor]
34	CCOC(=O)c1c(NC(=O)c2cc(C)on2)c2cc([N+](=O)[O-])ccc2n1C	15	7%	·	-11%
35	CCOC(=O)C1CCCN(C(=O)Cn2sc3nc(C)cc(C)c3c2=O)C1 (centres undefined)	5	-10%	-23	-8%
36	CCOC(=O)CSc1nnc(CNC(=O)c2cccc(C)c2)n1-c1ccccc1OC	1	-2%	2	8%
37	COc1ccc(-c2ccc3c(c2)O[C@@H](CN(C)C(=O)c2ccccc2F)[C@@H](C)CN([C@@H](C)CO)S3(=O)=O)cc1	·	·	-4	-7%
38	O=c1oc2ccccc2c2c1nc(C(F)(F)F)n2-c1ccccc1	13	-2%	6	22%
39	Nc1c(Br)cc(Br)c2c1[nH]c(=O)c1ccccc12	·	·	-4	-1%
40	COc1ccc(Cn2cc(C(=O)c3ccccc3)c(=O)c3cc(OC)ccc32)cc1	-9	-2%	2	16%

cpd	Sfp inh	Menin-MLL FL inh	ClpP mod
33	·	·	23%
34	10%	-1.8	-0.5%
35	1.8µM*	?	?
36	11%	1.4	-3.3%
37	·	·	-17%
38	11%	-1.6	-0.2%
39	·	·	0.1%
40	2%	-0.2	-0.6%

(further entries)
cpd	structure	TRPV1 potentiator	gsp antag	CtBP-E1A blk	gsp ag
41	COc1ccc2c(COC(=O)c3n[nH]c4ccccc34)cc(=O)oc2c1	2	10%	-2	15%
42	Cc1ccc(C)n1-c1ccncc1	?	9%	5	6%
43	CNC(=O)c1ccc(NC(=O)CCNC(=O)Nc2ccccc2)cc1	6	13%	6	-34%[inhibitor]
44	CCCCN1C2CCCC1CC(NC(=O)c1cccc(Cl)c1)C2 (centres undefined)	-1	9%	9	0%
45	CN(NC(=O)c1ccco1)c1nc2ccccc2nc1C(F)(F)F	0	-1%	8	5%
46	Cc1c(C(=O)Nc2ccc(S(=O)(=O)N(C)C3CCN(C)CC3)cc2)oc2ccccc12	12	9%	0	1%
47	COc1ccc(NC(=O)C2CCN(S(=O)(=O)c3cn(C)nc3C)CC2)cc1	-2	4%	4	-6%
48	CSc1nsc(SCC(=O)Nc2ccccn2)n1	27	2%	-4	0%

cpd	Sfp inh	Menin-MLL FL inh	ClpP mod
41	-2%	2.9	28µM*
42	3%	0.9	?
43	·	·	0.7%
44	1%	-4.2	-0.5%
45	32%[activator]	-0.3	·
46	·	·	-5.4%
47	5%	·	·
48	-3%	5.4	-0.9%

Compound activity (PubChem)

An unsorted share of the library; 5.3% or so of the library scored in one or more.
